Mtb betalactam: beta-lactam sensitization of Mtb H37Rv. M. tuberculosis H37Rv growth with meropenem, percent inhibition; hits of this screen are not shown here. inhibition, % at 25 µM. 330,000 tested, 0.27% active;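 active means about 74% or more and at least 40 points above the plate without the antibiotic, then above 30% in a dose series; inconclusive means first-round hits that could not be retested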;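 further: growth measured after seven days incubation then overnight dye step; 0% = bacteria only wells and 100% = bacteria with antibiotic; twin plates without the antibiotic show which effects depend on it; some results filed as inactive read as strong as hits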
RecA intein inh: blocks M. tuberculosis RecA intein splicing | P9WHJ3 | cell-free RecA intein splicing, fluorescence | inhibition, %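 (about 9 µM by stock and volumes)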 | 290,000 tested, 0.75% active | AID 2221; in the data active means inhibition above about 30%; inconclusive means no clear call, values can overlap the other calls;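 further: 0% = vehicle wells and 100% = reference inhibitor control wells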
Target sequence (P9WHJ3 whole entry, looked up): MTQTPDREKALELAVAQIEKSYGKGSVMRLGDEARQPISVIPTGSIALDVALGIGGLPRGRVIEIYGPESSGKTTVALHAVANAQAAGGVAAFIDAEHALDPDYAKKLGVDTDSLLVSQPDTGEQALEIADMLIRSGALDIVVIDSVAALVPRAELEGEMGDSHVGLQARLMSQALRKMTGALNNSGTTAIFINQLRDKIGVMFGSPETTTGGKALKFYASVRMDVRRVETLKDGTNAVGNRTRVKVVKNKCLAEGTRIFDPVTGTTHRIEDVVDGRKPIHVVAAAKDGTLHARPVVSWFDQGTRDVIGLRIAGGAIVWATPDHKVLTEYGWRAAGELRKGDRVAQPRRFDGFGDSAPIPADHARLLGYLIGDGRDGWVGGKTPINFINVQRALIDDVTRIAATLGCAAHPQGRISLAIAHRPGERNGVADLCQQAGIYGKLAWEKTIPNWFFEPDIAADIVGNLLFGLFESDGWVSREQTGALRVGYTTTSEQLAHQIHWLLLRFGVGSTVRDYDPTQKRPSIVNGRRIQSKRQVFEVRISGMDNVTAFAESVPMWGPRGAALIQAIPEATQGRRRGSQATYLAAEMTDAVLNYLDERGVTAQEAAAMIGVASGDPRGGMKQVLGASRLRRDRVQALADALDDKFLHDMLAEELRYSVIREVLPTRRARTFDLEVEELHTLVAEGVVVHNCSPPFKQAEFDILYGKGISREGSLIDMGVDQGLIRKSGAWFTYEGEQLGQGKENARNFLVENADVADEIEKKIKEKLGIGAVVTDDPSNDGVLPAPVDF
Mtb growth: M. tuberculosis H37Rv growth inhibitors, H37Rv strain (AID 1626); M. tuberculosis H37Rv growth inhibition; higher % means a stronger effect; inhibition, % at 10 µM; hits with a dose series show IC50 in µM; 220,000 tested, 0.95% active;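 active means confirmed in a dose series; inconclusive means inhibition above 80% but not taken into the dose series; inactive means below 80% or under 30% at every dose of the series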;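 further: bacteria incubated seven days before Alamar blue readout; 0% = bacteria only wells and 100% = bacteria with antibiotic wells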
Arbovirus inh: blocks arbovirus infection; arbovirus infection cell-based antiviral screen; inhibition, % at 10 µM; 200,000 tested, 0.37% active;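 active means inhibition from about 30%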;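 further: bluetongue infection of BSR cells; cell survival read as ATP light after 72 h; 0% = infected wells without compound and 100% = uninfected wells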
YopH PTP inh: blocks Yersinia enterocolitica YopH tyrosine phosphatase | 140,000 tested, 0.16% active | inhibition, %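 (about 10 µM by stock and volumes)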 | fluorescence Ex485/Em525 | AID 898;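 active means inhibition of 50% or more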;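 further: controls were vehicle for no effect and minimum signal wells for full effect; inactives centre near -20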
Arbovirus inh repeat: second read-out of Arbovirus inh, no call of its own (marks repeat the call); inhibition, %; measured here: 10K subset replicate screen; many hits read low in the repeat;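 first of two repeat runs on a subset; 0% = infected and 100% = uninfected wells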
Starred values were filed as active, the others as inactive; ? = inconclusive; . = no result given. An excerpt; rates above refer to the full screens.

SMILES	Mtb betalactam	RecA intein inh	Mtb growth	Arbovirus inh	YopH PTP inh	others
COc1cccc(N2[C@@H](CC(C)=O)c3cc(C(F)(F)F)ccc3S2(=O)=O)c1	1	0.6	6%	.	.
CC(=O)Nc1ccc(S(=O)(=O)N2CCC(NC(=O)c3ccco3)CC2)cc1	-4	-0.8	-1%	-1	-24
CCOC(=O)c1cc(CC)sc1NC(=O)CN1CCN(C(=O)c2ccco2)CC1	39	10.0	.	.	.
CCOC(=O)CN1C(=O)N[C@@H](c2ccccc2)[C@H](C(C)=O)[C@H]1C	1	-2.2	11%	.	.
Nc1nnn(-c2ccccc2)c1-c1ccccc1	-1	2.0	.	.	.
COc1ccc(CC(=O)NCc2n[nH]c(=S)n2-c2ccccc2)cc1	-7	0.7	-4%	-2	.
CCOC(=O)CNC(=O)CSc1nnc(-c2cccc(OC)c2)n1CC	-12	7.7	1%	-1	-48
CC(C)OC(=O)/C(C#N)=C/c1cn(C)c2ccccc12	68	0.8	0%	.	.
O=C(O)CCC(=O)N1CCCC1	1	-3.1	4%	-2	.
Cc1nn(-c2ccc(N3CCCCC3)nn2)c(C)c1CCC(=O)Nc1cccc(F)c1	-2	1.9	.	.	.
CN(C)C(=O)/C(=C\c1ccc(-c2cccc([N+](=O)[O-])c2)o1)NC(=O)c1ccccc1	1	1.0	3%	-4	.
O=C1CCN(C(=O)Nc2ccccc2Cl)N1	6	-3.0	-3%	-7	-23
O=C(O)c1ccc2c(c1)C(=O)N(NC(=O)c1ccc(O)cc1)C2=O	-5	-0.6	-1%	-2	-14
CCCOC(=O)c1ccc(NC(=O)C(=O)NCCN(CC)CC)cc1	94	0.4	53µM*	-3	.
COCCNC(=O)CCC1CCN(Cc2cccc(-c3ccc(C)o3)c2)CC1	3	-3.0	.	.	.
Cc1ccc(-c2nnc(/C=C/c3ccccc3)o2)cc1	7	1.8	5%	10	-31
CN(CCO)c1ncnc2c1sc1nc(N3CCOCC3)c3c(c12)CCC3	2	-0.7	5%	.	.
CCOC(=O)c1c(S(=O)(=O)NC2CCN(C(=O)OCC)CC2)c(C)n(C)c1C	24	-9.0	.	.	.
COc1ccc(-c2cc3nc4n(c(=O)c3s2)CCCCC4)cc1	5	-2.3	1%	.	.
C=CCN1C(c2ccc(OCC)cc2)=CS/C1=C(\C#N)c1nnc2n1CCCCC2	13	.	9%	-8	-9
COC(=O)c1sccc1NC(=O)/C=C/c1c(Cl)cccc1Cl	-4	0.0	7%	9	-14
O=C(CSc1nc2ccccc2c(=O)[nH]1)Nc1ccccc1C(F)(F)F	0	0.1	.	.	.
c1ccc(CSc2nnnn2-c2ccc3c(c2)OCCO3)nc1	9	-2.0	17%	2	-36
COc1ccc(CNC(=O)C(c2ccco2)N(C(=O)c2snc(C(N)=O)c2N)c2ccccc2OC)cc1 (centres undefined)	0	-12	.	.	.
Cc1ccnc2nc(C(=O)Nc3nnc(-c4ccc(Cl)cc4)o3)nn12	-3	-4.0	-1%	7	.
SMILES	Mtb betalactam	RecA intein inh	Mtb growth	Arbovirus inh	YopH PTP inh	others
CC(O)c1cc2c(cc1NC(=O)c1cnn3c1NC(c1ccco1)CC3C(F)(F)F)OCO2 (centres undefined)	3	-3.7	-6%	0	-3
O=C(Cn1ccc2ccccc2c1=O)N1CCN(c2cccc(Cl)c2)CC1	-1	-4.4	-5%	2	-26
CCC(=O)N1CCc2cc(S(=O)(=O)NC(Cc3ccccc3)C(=O)O)ccc21 (centres undefined)	1	-1.7	.	.	.
CCCN(CCC)CCCNC(=O)c1cn(-c2ccc(OC)cc2)c(=O)c2ccccc12	-6	-1.0	.	.	.
COc1ccccc1N1CCN(S(=O)(=O)c2ccc3c4c(cccc24)C(=O)N3)CC1	-1	.	1%	7	-28
O=C(Nc1ccc2c(c1)OCO2)c1ccc(Cl)cc1Cl	85	-0.4	.	.	.
COc1cccc(NS(=O)(=O)NC(=O)c2c[nH]c3ccccc23)c1	?	-9.4	.	.	.
Cn1ncc2c(Nc3ccc(Cl)c(Cl)c3)ncnc21	8	1.8	.	.	.
O=C(NC1CCCCC1)c1ccccc1NC(=S)NC(=O)C1CC1	5	1.2	14%	-1	-23
CN1CCC(OC(=O)c2ccco2)CC1	-1	1.8	-2%	3	.
CN(CC(=O)NCCN1CCOCC1)S(=O)(=O)c1ccc(F)cc1	3	-3.1	.	.	.
N[C@@H](Cc1ccccc1)C(=O)N1CCOCC1	-3	-1.4	.	.	.
O=C(Nc1ccc(-c2nc3ccccc3o2)cc1)c1ccc(N2CCOCC2)c([N+](=O)[O-])c1	13	-2.5	4%	-8	-13
Cc1ccccc1N(C(=O)c1snc(C(N)=O)c1N)C(C(=O)NCc1ccccc1)c1ccc(O)cc1 (centres undefined)	-7	-3.4	.	.	.
CCO/N=C(/C)c1c(O)cc(-c2ccccc2)n(-c2ccccc2)c1=O	15	0.3	0%	18	-28
Cc1cc(/C=C2\SC(=S)N(C)C2=O)c(C)n1-c1ccc(O)cc1	2	7.5	8%	.	.
Clc1ccc(-c2n[nH]c3c2CCC3)cc1Cl	94	11	-2%	-26	-3
Cn1c(C(=O)N2CCN(C3CCCCC3)CC2)cc2c(=O)n(C)c3ccccc3c21	.	.	-13%	-10	-20	Arbovirus inh repeat=1
CCN(CC(=O)Nc1ccccc1C(F)(F)F)C(=O)/C=C/c1ccc(Cl)c([N+](=O)[O-])c1	-3	0.0	.	.	.
CC(C)CCSc1nnc(Cn2c(=O)sc3ccccc32)n1C	-10	2.4	-13%	6	-15	Arbovirus inh repeat=3
O=C(CCC(=O)c1ccc(Oc2ccccc2)cc1)Nc1ccc(C(=O)O)cc1	0	0.4	.	.	.
CC(=O)Nc1sc(C)c(C)c1CN1CCN(Cc2ccccc2)CC1	-13	2.4	4%	-3	.
COc1ccc(OC)c(CNC(=O)C2CCC(=O)N(CCCN3CCCC3=O)C2)c1 (centres undefined)	5	-1.4	.	.	.
CCN1CCC(CNCc2cn(-c3ccc(OC)cc3)nc2-c2ccccc2Cl)C1 (centres undefined)	-6	2.9	-2%	-28	.
Cc1cc(C)c(C#N)c(SCc2ccc(C#N)cc2)n1	-3	.	1%	2	15

Copied from above (seven entries):
SMILES	Mtb betalactam	RecA intein inh	Mtb growth	Arbovirus inh	YopH PTP inh	others
CCN(CC(=O)Nc1ccccc1C(F)(F)F)C(=O)/C=C/c1ccc(Cl)c([N+](=O)[O-])c1	-3	0.0	.	.	.
CC(C)CCSc1nnc(Cn2c(=O)sc3ccccc32)n1C	-10	2.4	-13%	6	-15	Arbovirus inh repeat=3
O=C(CCC(=O)c1ccc(Oc2ccccc2)cc1)Nc1ccc(C(=O)O)cc1	0	0.4	.	.	.
CC(=O)Nc1sc(C)c(C)c1CN1CCN(Cc2ccccc2)CC1	-13	2.4	4%	-3	.
COc1ccc(OC)c(CNC(=O)C2CCC(=O)N(CCCN3CCCC3=O)C2)c1 (centres undefined)	5	-1.4	.	.	.
CCN1CCC(CNCc2cn(-c3ccc(OC)cc3)nc2-c2ccccc2Cl)C1 (centres undefined)	-6	2.9	-2%	-28	.
Cc1cc(C)c(C#N)c(SCc2ccc(C#N)cc2)n1	-3	.	1%	2	15

Remaining list, next part:
SMILES	Mtb betalactam	RecA intein inh	Mtb growth	Arbovirus inh	YopH PTP inh	others
CC1(C)Cc2c(C#N)c(NCCc3ccccc3)nc(-c3ccco3)c2CO1	-13	2.8	-5%	-5	-26
COC(=O)c1cc(C(=O)c2cc(Cl)ccc2O)coc1=N	-3	-2.6	4%	5	.
O=c1cc(-c2ccncc2)oc2c1ccc1ccccc12	97	-0.8	.	.	.
NCCCC[C@H]1NC(=O)[C@H](CCC(=O)O)NC(=O)c2cc([N+](=O)[O-])cc(I)c2OCC[C@@H](C(N)=O)NC1=O	-14	.	-19%	-7	-14
COc1ccc(N2Nc3n[nH]c(N)c3N2)cc1	-3	9.4	-7%	-8	-66
CC(C)c1ccc(NC(=O)C(c2ccc3c(c2)OCO3)N2CCN(C(=O)c3ccco3)CC2)cc1 (centres undefined)	6	7.7	9%	-1	-24
COc1ccc(C(=O)N(C)C2CCCN(Cc3ccccc3F)C2)cc1OC (centres undefined)	-6	-0.4	.	.	.
COc1ccc(Nc2ccc(C(=O)O)cc2[N+](=O)[O-])cc1	-4	2.5	4%	6	-29
O=C(CNC(=O)c1ccc(Cl)c([N+](=O)[O-])c1)OC1CCCCC1=O (centres undefined)	-5	-1.0	.	.	.
CC(NC(=O)C1CCN(S(=O)(=O)c2ccccc2)CC1)c1ccccc1 (centres undefined)	-12	-7.5	.	.	.
COc1ccc(CCN2C(=O)c3ccncc3C2=O)cc1OC	-4	0.9	1%	4	51*
O=C(O)CS(=O)(=O)c1ccc(C(F)(F)F)cn1	-2	-1.4	-4%	-3	.
CCc1ccc(CNC(=O)C(=O)NCC2CCCO2)cc1 (centres undefined)	7	9.1	2%	-2	.
O=C(c1ccccc1)N1CCN(Cc2ccc3c(c2)OCO3)CC1	4	-2.9	.	.	.
CCOC(=O)N1CCc2c(sc(NC(=O)CCS(=O)(=O)c3ccccc3)c2C(N)=O)C1	?	5.4	.	.	.
CCN(CC(=O)Nc1c(F)cccc1F)C(=O)CSCc1c(C)noc1C	4	-1.4	.	.	.
Cc1ccc(C)c(NC(=O)CCC(=O)NNC(=O)COc2cc(C)ccc2C)c1	3	-5.8	.	.	.
Cc1ccc(NC(=O)c2ccc(Oc3ncccn3)cc2)cc1	-3	0.1	-5%	2	.
O=C(CCCCn1c(=O)[nH]c2ccccc2c1=O)N1CCN(c2cccc(C(F)(F)F)c2)CC1	98	9.7	-2%	-20	-17
O=C(c1cccc(Br)c1)N1CCN(S(=O)(=O)N2CCCCC2)CC1	1	-0.8	.	.	.
COc1ccc(N2CCN(C(CNC(C)=O)c3ccc4c(c3)OCO4)CC2)cc1 (centres undefined)	-3	-4.9	.	.	.
O=C(NCc1ccc(Cl)cc1Cl)C1CC(=O)N(Cc2ccccc2)C1 (centres undefined)	-10	-5.7	4%	1	.
CCSC1=NC(=O)/C(=C2/C=Cc3ccccc3N2CC)S1	-12	-5.5	-11%	5	-22
Cn1c2ccccc2c2ncn(CCCN3CCOCC3)c(=O)c21	-5	-1.0	-3%	7	1
Cc1ccccc1NC(=O)Oc1cccc(OC(=O)c2ccccc2)c1	7	0.0	7%	.	.
SMILES	Mtb betalactam	RecA intein inh	Mtb growth	Arbovirus inh	YopH PTP inh	others
Cc1cccc(N2C(=O)CC(N3CCN(c4ccccc4)CC3)C2=O)c1 (centres undefined)	1	1.9	0%	12	-1
Cc1nc2sc3c(c2c(=O)[nH]1)CCC3	-7	-1.6	-6%	-2	5
CCN1C(=O)/C(=C\c2ccc([N+](=O)[O-])s2)C(=O)NC1=S	.	.	7%	-17	.
COc1ccccc1OCCNC(=O)c1cc([N+](=O)[O-])cc([N+](=O)[O-])c1	100	-4.6	?	-4	.
CN1CCCN(S(=O)(=O)c2cccc(C#N)c2)CC1	-9	0.0	.	.	.
O=C(c1ccc2c(c1)OCCO2)C1CCN(S(=O)(=O)c2ccccc2F)CC1	2	4.2	-14%	-7	-29
O=C(COc1ccc(S(=O)(=O)N2CCOCC2)cc1Cl)NCCCn1ccnc1	-5	-3.2	.	.	.
O=C(CSc1ccc(-c2ccco2)nn1)c1cccc([N+](=O)[O-])c1	-1	-5.2	-5%	-2	-17
Cc1ccc2[nH]c3c(=O)[nH]ncc3c2c1	-6	0.0	.	.	.
COc1ccc(NC(=O)N2CCCC2C(=O)NCc2ccc(C)cc2)cc1 (centres undefined)	-2	-0.3	-3%	0	.
Cc1cc(S(=O)(=O)N2CC(=O)N(CCc3ccccc3)C(=O)C2)ccc1F	-7	-0.5	-9%	2	-38
OCCN1CCN(C2CCC(c3ccc(F)cc3)c3ccc(F)cc32)CC1 (centres undefined)	69	6.6	.	.	.
O=C(O)c1cc(NC(=O)c2ccco2)cc(NC(=O)c2ccco2)c1	1	-2.7	.	.	.
COc1ccc(C2=NN(C(=O)CCCC(=O)O)C(c3cn(-c4ccccc4)nc3-c3ccccc3)C2)cc1 (centres undefined)	23	4.8	11%	.	.
O=C(NCCCN1CCCC1)Nc1cccc2ccccc12	2	-2.9	.	10	-26
CCCCOC(=O)c1cccnc1	-4	2.0	-3%	.	.
CC1CCCCC1NC(=O)c1ccc(CSc2nc3ccncc3[nH]2)cc1 (centres undefined)	7	1.3	.	-7	-14
Cc1c(C(=O)NCc2ccccn2)sc2nc(-c3ccccc3)cn12	4	-0.4	6%	-25	-34	Arbovirus inh repeat=-19
COC(=O)CSc1nnc(NC(=O)CCc2ccccc2)s1	88	2.2	.	.	.
CCOc1ccc(-n2cnnn2)cc1S(=O)(=O)Nc1c(C)cccc1C	1	2.6	-7%	-5	9
COC(=O)c1cccc(CN2C(=O)SC(Nc3ccc(C)cc3)C2=O)c1 (centres undefined)	1	-1.0	-6%	.	.
Cc1cc(Br)c(NC(=O)CCNC(=O)OCc2ccccc2)cc1C	-28	-0.6	.	.	.
COc1ccc(CC[n+]2cc(/N=C(\C)[O-])on2)cc1OC	-2	-0.4	1%	0	3
